KSHV LANA nucl – inhibitors of KSHV LANA-nucleosome binding, primary screen, biochemical, fluorescence polarization, FITC-LANA1-23, chicken nucleosomes; z-score (no concentration beside the values); 0.3% of 51,000 active; FITC-LANA1-23 / chicken nucleosome fluorescence polarization; active compounds read low;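 active = both repeat wells score below -2 in polarization z-score versus plate sample wells, excluding overly bright wells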;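 also: 100 nL library stock added to about 30 µL; numbers are from one replicate; some results filed as inactive read as strong as hits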
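test system = FITC-LANA peptide and chicken nucleosomes | amount = 240 nM purified chicken nucleosomes (480 nM peptide binding sites), final | reagent = 50 nM FITC-LANA1-23 probe | medium = TEN-BT buffer, pH 7.5 | doses = single compound addition by pin transfer, 100 nL per well | timing = 10–45 min, room temperature | detection = fluorescence polarization | repeats = duplicate plates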
Ab BasE inh – BasE siderophore enzyme inhibitors, primary screen, biochemical, Acinetobacter baumannii ATCC 17978, fluorescence polarization; AID 485350, 2010; 0.1% of 84,000 active; purified BasE, fluorescence polarization binding displacement; inhibition, % (concentration not given with the values);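 active = both replicates above 25% with normal brightness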;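 also: 0% = negative plate control signal and 100% = positive plate control signal; stock transfer was 100 nL into about 30 µL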
The depositor's hits bear a star; / = not tested or not shown; & = joins results of further samples. A portion of the library; the hit share may differ from the screen's.

The first 19 compounds as a preview:
SMILES	KSHV LANA nucl	Ab BasE inh
O=C(NCc1ccccc1)c1ccc(CN2CCC(Cc3ccccc3)CC2)cc1	/	1.0
C/C(=N\Nc1ccccc1)C1Cc2ccccc2C(=O)O1 (stereo unspecified)	/	0.9
O=S(=O)(NCCN1CCOCC1)c1ccc(Cc2ccc(S(=O)(=O)NCCN3CCOCC3)cc2)cc1	-1	0.3
O=S(=O)(CCc1nc2ccccc2o1)c1ccc2ccccc2c1	0.96	0.0
COC(=O)c1ccc(C(=O)NN)cc1	/	2.9
CCOC(=O)Cn1c(=O)c(C(N)=S)cn(C(C)C)c1=O	/	-0.9
COC(=O)C1=C(C)NC(=S)NC1/C=C/c1ccccc1 (stereo unspecified)	-0.14	-0.1
CCc1ccc(CN2CCC(O)CC2)cc1	-0.03	1.4
COC(=O)c1cccc(NC(=O)C2=NNC(=O)CC2)c1	/	0.0
N#Cc1ccc(NC(=O)CCC(=O)O)cc1	-0.45	-1.7
O=C(Cc1ccccc1)Nc1cccc(-c2ccc(N3CCCC3)nn2)c1	1.1	-0.8
CC(=O)N1N=C(c2cc(C3CC3)nc3ccccc23)OC1c1ccc2c(c1)OCO2 (stereo unspecified)	-2	0.8
C=CCNC(=S)NC1(C)CCS(=O)(=O)C1 (stereo unspecified)	/	-1.2
O=C=NC12CC3CC(CC(C3)C1)C2	/	0.8
Cc1cc(C(=O)NN2C3CSC2CS3)no1	/	1.3
CC1=NC=CC2NC(=O)C(C#N)=CC12 (stereo unspecified)	-0.05	1.4
COc1ccc(/C=C/C(=O)N(CC(C)C)CC(C)C)cc1	0.45	1.3
O=C1N(c2ccccc2)CCN1c1ccccc1	0.032	4.5
O=C(Nc1ccccc1)Nc1ccc(OC(F)F)cc1	0.25	0.3

All compounds of this part, from the first entry:
SMILES	KSHV LANA nucl	Ab BasE inh
O=C(NCc1ccccc1)c1ccc(CN2CCC(Cc3ccccc3)CC2)cc1	/	1.0
C/C(=N\Nc1ccccc1)C1Cc2ccccc2C(=O)O1 (stereo unspecified)	/	0.9
O=S(=O)(NCCN1CCOCC1)c1ccc(Cc2ccc(S(=O)(=O)NCCN3CCOCC3)cc2)cc1	-1	0.3
O=S(=O)(CCc1nc2ccccc2o1)c1ccc2ccccc2c1	0.96	0.0
COC(=O)c1ccc(C(=O)NN)cc1	/	2.9
CCOC(=O)Cn1c(=O)c(C(N)=S)cn(C(C)C)c1=O	/	-0.9
COC(=O)C1=C(C)NC(=S)NC1/C=C/c1ccccc1 (stereo unspecified)	-0.14	-0.1
CCc1ccc(CN2CCC(O)CC2)cc1	-0.03	1.4
COC(=O)c1cccc(NC(=O)C2=NNC(=O)CC2)c1	/	0.0
N#Cc1ccc(NC(=O)CCC(=O)O)cc1	-0.45	-1.7
O=C(Cc1ccccc1)Nc1cccc(-c2ccc(N3CCCC3)nn2)c1	1.1	-0.8
CC(=O)N1N=C(c2cc(C3CC3)nc3ccccc23)OC1c1ccc2c(c1)OCO2 (stereo unspecified)	-2	0.8
C=CCNC(=S)NC1(C)CCS(=O)(=O)C1 (stereo unspecified)	/	-1.2
O=C=NC12CC3CC(CC(C3)C1)C2	/	0.8
Cc1cc(C(=O)NN2C3CSC2CS3)no1	/	1.3
CC1=NC=CC2NC(=O)C(C#N)=CC12 (stereo unspecified)	-0.05	1.4
COc1ccc(/C=C/C(=O)N(CC(C)C)CC(C)C)cc1	0.45	1.3
O=C1N(c2ccccc2)CCN1c1ccccc1	0.032	4.5
O=C(Nc1ccccc1)Nc1ccc(OC(F)F)cc1	0.25	0.3
O=C(Oc1cc(=O)oc2ccccc12)c1ccccc1	-0.016	1.7
COc1cc(NC(=O)CC2OCCN(Cc3ccccc3)C2=O)cc(OC)c1 (stereo unspecified)	-0.15	2.4
FC(F)(F)c1nc(N2CCCCC2)nc2c1CCCCC2	-0.59	1.3
CC(=O)N1CCN(c2ccc(OC[C@H]3CO[C@](Cn4ccnc4)(c4ccc(Cl)cc4Cl)O3)cc2)CC1	0.19&0.99&-0.81	-1.0
CN(C)/C=N/C1N=C(C2CC2)N(C)C(=O)N1 (stereo unspecified)	/	-0.7
Cc1ccc(NC(=O)/C(CN(C)C2CCCCC2)=N\O)cc1	0.15	2.5
COCCCNc1nc2ccc(C(=O)c3ccccc3)cc2n2cnnc12	/	1.4
O=C(COC(=O)c1ccc2c(c1)OCO2)NC1C2CC3CC(C2)CC1C3 (stereo unspecified)	/	0.6
O=C1NC(c2cccc(F)c2)=N/C1=C\C=C\c1ccccc1	/	0.5
Cc1nn2c(c1-c1ccc(Cl)cc1)N=C(c1ccco1)CC2c1ccccc1 (stereo unspecified)	-1.1	0.0
O=C(CN1CCNCC1)N1CCCCC1	/	2.2
NC(=O)CN(c1ccccc1)C1SC(=O)NC1=O (stereo unspecified)	-0.6	0.6
N#Cc1ccc(OC(=O)c2ccc(-c3cccc(C(F)(F)F)c3)o2)cc1	/	3.1
Cc1ccccc1OCC(=O)OCC(=O)NC1CCCCC1	/	2.1
O=S(=O)(c1cc(C(F)(F)F)ccc1Cl)N1CCN(Cn2c(CO)nc3ccccc32)CC1	/	-1.0
COc1ccc(CC(=O)O)c(OC)c1	/	1.9
CCCN(CC1CC1)C(=O)CSc1n[nH]c(=O)n1CC	/	3.1
O=C(c1c[nH]c2ccccc12)N1CCCC1	0.49	/
COc1ccc(CN(CC(=O)NC2CCCC2)C(=O)Cn2nnc(-c3ccc(OC)cc3)n2)cc1	2.7	-3.1
Cc1nn(-c2ccccc2)c(Cl)c1/C=C/C(=O)O	/	-1.1
NC(Cc1ccccc1)C(=O)O (stereo unspecified)	0.16	3.2
CCOc1ccc2[nH]c(=O)c(CN(Cc3cccnc3)S(=O)(=O)c3ccccc3)cc2c1	0.1	-3.5
COC(=O)C1Cc2ccccc2CN1Cn1nc(-c2ccco2)n(-c2ccccc2)c1=S (stereo unspecified)	/	0.0
O=C(Nc1c(C(=O)N2CCOCC2)oc2ccccc12)c1cccc(F)c1	/	-1.1
Cc1ccc(NCC(=O)N=Nc2c(O)[nH]c3ccccc23)cc1	-0.14	-1.3
O=C1CCN(C(=O)c2ccc(-c3cccc(C(F)(F)F)c3)o2)CC1	/	-1.6
O=C(OCC(=O)N(C1CCCCC1)C1CCCCC1)c1ccc(Br)o1	/	-1.0
O=C(CSC1CCCCC1)NCc1ccccc1	-0.28	3.1
NC(=S)N/N=C/c1ccco1	1	-0.1
COCCn1c(-c2cc3ccccc3o2)csc1=Nc1ccc(OC(F)F)cc1	/	0.7
Cc1cccc(NC(=O)CS(=O)(=O)c2cn(C)c3ccccc23)c1	0.83	-2.9
CC1=NOC(=O)/C1=C/c1ccc(O)cc1	0.22	-1.2
CN(C)c1ccc(C(=S)N2CCN(C(c3ccccc3)c3ccccc3)CC2)cc1	/	0.2
CCC(C)N(C(=O)NC1CCCCC1)C(C)CC (stereo unspecified)	-0.53	1.0
NNC(=O)C(O)c1ccc(Cl)cc1 (stereo unspecified)	2	-2.4
O=c1cc[nH]c2c(Cl)c(Cl)ccc12	/	-10
COc1cccc2cc(-c3nc4ccccc4[nH]3)c(=N)oc12	0.14	1.2
CC(c1ccco1)N(C(=O)COc1ccc(Cl)cc1)c1ccccn1 (stereo unspecified)	/	1.8
COC(=O)C(C)NC(=O)C12CC3(C)CC(C)(CC(C)(C3)C1)C2 (stereo unspecified)	/	-0.6
CCC(C)NC(=O)CCn1c(=O)sc2ccccc21 (stereo unspecified)	-0.76	0.2
Cc1cc(C)c2c(c1)CC(C)(C)c1[nH]c(-c3ccccc3)nc1-2	/	1.9

Other results follow.
SMILES	KSHV LANA nucl	Ab BasE inh
O=C(C1CC1)N1N=C(c2ccc(Cl)cc2)CC1(O)C(F)(F)F (stereo unspecified)	/	-0.3
CCCCCn1c(=O)c2ccccc2n2c(Cn3ncc(Cl)c(Cl)c3=O)nnc12	/	2.5
CNC(=S)NNc1ncccc1-n1cccc1	-0.67	0.1
Cc1cc(C)nc(-n2nc(C)cc2NC(=O)CNC2CCCCC2)n1	/	-0.5
COC(=O)c1ccc(NC(=O)CC(C)CC(=O)O)cc1 (stereo unspecified)	-0.44	-1.5
CCOC(=O)c1c(Cc2ccc(Cl)cc2)c[nH]c1C	0.66	2.7
COc1ccccc1N1CCN(C2=Nc3cccc4cccc2c34)CC1	/	-8.4
O=C(Nc1csnc1-c1c(Cl)cccc1Cl)NN1CCCCC1	/	1.1
Cc1cccn2c(=O)c3cc(C(=O)NCCN4CCOCC4)c(=N)n(CCCN4CCOCC4)c3nc12	1.8	-2.3
C=CCNC(=O)c1cc2c(=O)n3cccc(C)c3nc2n(CCN2CCOCC2)c1=N	-0.69	-1.6
CCc1nc2ccc(NC(C)=O)cc2c(=O)n1Cc1ccccc1	-1.1	-4.6
Cc1oc(-c2ccccc2)nc1C(=O)OCC(=O)Nc1ccnn1C(C)C	/	-1.6
Cn1ncc2c(N3CCN(c4ccccc4)CC3)ncnc21	-1.7	2.2
COc1ccc(NC(=O)COC(=O)C2CC3C=CC2C3)cc1 (stereo unspecified)	/	2.2
N#Cc1c(C(F)(F)F)c2c([nH]c1=S)CCCC2	/	-0.3
CCn1c(SC(C)C#N)nnc1-c1cccs1 (stereo unspecified)	/	1.1
NC(=S)c1ncc(C(F)(F)F)cc1N1CCCC1	/	0.3
Cc1nn(-c2ccccc2)c2sc(C(=O)NN3C(=O)c4ccccc4C3=O)cc12	-1	-1.0
Cc1ccc(S(=O)(=O)N2CC=C(C(=O)NCc3ccccc3)CC2)cc1	0.21	2.0
COc1cc(NC(=O)C(F)(F)F)c(OC)cc1Br	-0.13	-0.2
Cc1cnc(C(=O)Nc2ccc(C(=O)N(C)C3CCCCC3)cc2)cn1	-1	-0.9
COc1ccc(C(=O)CSc2nnc(C)n2Cc2ccccc2)cc1OC	/	-33
CSc1nc2sc3c(c2c2nncn12)CCC(C(C)(C)C)C3 (stereo unspecified)	/	3.5
O=C(Nc1ccnn1C1CCCC1)c1ccc(-n2cccn2)cc1	/	-1.9

One compound at a time (already shown). Order of values: KSHV LANA nucl, Ab BasE inh
Record of Cc1ccccc1OCC(=O)OCC(=O)NC1CCCCC1 → /, 2.1
Record of O=C=NC12CC3CC(CC(C3)C1)C2 → /, 0.8

Continuation.
SMILES	KSHV LANA nucl	Ab BasE inh
CCOc1ccc(CC(=O)Nc2cccc(-c3ccc(N4CCOCC4)nn3)c2)cc1	2.1	0.9
C=CCSc1ncc(Cl)c(C(=O)Nc2ccc(OC)cc2OC)n1	-0.067	-1.3
C=CCn1c(COc2ccccc2)nnc1SCC(=O)N1CCc2ccccc21	-0.82	-0.6
CCOc1c(Br)cc(C(=O)OCc2nc(N)nc(Nc3ccccc3)n2)cc1OC	/	-4.3
CC(SCc1ccccc1)C(=O)NN=C1CCN(C)CC1 (stereo unspecified)	0.52	5.0
CSc1nc2c(=O)n(C)c(=O)n(C)c2n1C	0.93	1.3
C=C(C)COc1ccc(/C=C(/NC(=O)c2ccccc2)C(=O)O)cc1OC	/	2.2
CN(C(=O)Cn1c(=O)n(Cc2ccc(C(=O)NCc3ccco3)cc2)c(=O)c2sccc21)c1ccccc1	-1.4	-3.9
Cc1cc(C)n(Cc2c(F)cccc2Cl)c(=O)n1	-0.34	-2.7
NC(=O)C1CCN(c2ncnc3onc(-c4ccc(F)cc4)c23)CC1	/	-1.0
CC(C)C(NC(=O)c1ccccc1)C(=O)N1CCN(C/C=C/c2ccccc2)CC1 (stereo unspecified)	/	2.0
O=C(CNc1ccc(Cl)c(C(F)(F)F)c1)Nc1ccc(N2CCOCC2)cc1	/	1.5
Cn1nc(C(=O)Nc2nccs2)ccc1=O	/	-2.0
Cc1nc(C)c(-c2ccn(C(=O)Nc3c(-c4c(Cl)cccc4Cl)noc3C)n2)s1	0.71	0.3
O=C1Nc2ccccc2C1(O)c1c[nH]c2ccccc12 (stereo unspecified)	0.55	-2.8
OC(c1ccccc1)(c1ccccc1)C1CCN(C(=S)NCCc2ccccc2)CC1	/	2.2
Cn1nnn(CN2CCc3ccccc3C2)c1=S	/	-0.4
Cc1cc(C(=O)COC(=O)c2cc(S(=O)(=O)N(C)C)ccc2N2CCCC2)c(C)n1C1CC1	/	-2.2
COc1ccc(CNC(=O)C2CCCN2)cc1OC (stereo unspecified)	0.46	-0.4
Cc1ccc(C(=O)c2ccc(C)c(C)c2)cc1C	/	3.9
O=C(CSc1ccccc1)Nc1ccc2[nH]c(=O)[nH]c2c1	0.12	0.7
Cc1ccc2c(Cl)cc(Cl)c(OCC(=O)OCC(=O)Nc3ccc4c(c3)OCO4)c2n1	/	-2.9
c1ccc(-c2nnc(N3CCc4ccccc43)nc2-c2ccccc2)cc1	/	0.8
N#Cc1ccccc1OC(=O)CCN1C(=O)c2ccccc2C1=O	/	0.8
CCCNCc1nc(-c2ccc(Cl)cc2)no1	0.22	-1.4
COC(=O)c1cccc(NC(=O)Cc2csc(C)n2)c1	0.48	-2.4
Cc1ccc(C2CC(=O)C=C(Nc3ncn[nH]3)C2)cc1 (stereo unspecified)	-1.9	0.4
CCn1c(=O)cc(C(=O)OC)sc1=Nc1ccc(F)cc1	-0.28	1.1
S=c1[nH]c2c(n1-c1ccccc1)CCCC2	/	2.9
COc1ccc2cc3cc(C(=O)NCCN4CCN(Cc5ccccc5)CC4)oc3nc2c1	-0.58	-7.8
Cc1c(Cl)cccc1NS(=O)(=O)c1cc2c3c(c1)C(C)C(=O)N3CCC2 (stereo unspecified)	-1.8	2.1
COCC(=O)N(CCc1ccccc1)Cc1cc2cccc(C)c2n2nnnc12	-1.5	0.9
CC1CC(C)CN(C(=O)c2ccc(N3CCCC3=O)cc2)C1 (stereo unspecified)	2.1	-1.8
Cc1ccnc(NC(=O)Cc2ccc(F)cc2)n1	0.6	-0.4
